Source: PubChem
CapD inh: inhibitors of Bacillus anthracis CapD enzyme; 140,000 compounds, 0.23% hits; AID 492967; purified CapD enzyme, fluorescence intensity read-out; stronger effect = lower value; some hits fall short of the stated cut; z-score (test concentration not listed);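 active = z-score under -4 in either of two replicates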;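 note: stock transfer was 100 nL into about 40 µL; score is relative to mean and spread of the plate; one replicate is shown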
AID504770: E. coli YBA685 growth inhibition, screen for V. cholerae RctB inhibitors | E. coli YBA685 rctB-dependent plasmid, OD600 growth, 3 h; stronger effect = lower value | z-score (test concentration not listed) | 130,000 compounds, 0.27% hits | AID 504770;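 active = z-score under -2 on both plates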;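 note: wells of about 30 µL received 100 nL stock; score is relative to mean and SD of the test wells; the first replicate is given; strong numbers were not always called active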
An asterisk follows results filed as active; . = no result given.

Each structure is followed by: CapD inh, AID504770
- O=C1C2C3c4ccccc4C(c4ccccc43)C2C(=O)N1/N=C/c1ccco1 (centres undefined)
  ., 2.2
- CC(=O)Nc1scc2c1c(=O)oc1ccccc12
  0.095, -0.6
- COc1cc(OC)nc(NC(=O)C(C)C)n1
  0.17, 0.25
- Cc1cc(NC(=O)C(C)C)n(-c2nc3ccccc3s2)n1
  ., -1.6
- COc1ccc(CCN2Cc3nc4ccccc4c(=O)n3CC2=O)cc1
  ., 0
- CN1CCN(CC#CCC(O)(c2ccccc2)C2CCCC2)CC1 (centres undefined)
  -0.07, -0.55
- CCN(CCCN1C(=O)CSC1c1ccc(OC(F)F)c(OC)c1)c1ccccc1 (centres undefined)
  ., -0.35
- COc1cc(NC(=O)CSc2nc3[nH]ncc3c(=O)n2-c2ccc(Cl)cc2Cl)cc(OC)c1OC
  -0.035, .
- CC1CCN(c2nc3ccccn3c(=O)c2/C=C2\SC(=S)N(C(C)c3ccccc3)C2=O)CC1 (centres undefined)
  0.17, .
- c1ccc(OCC2CCCN3CCCCC23)nc1 (centres undefined)
  -0.36, -0.55
- Cn1c(=O)[nH]c(=O)c2c1nc(SCc1cccc(Br)c1)n2CC(O)COc1ccccc1 (centres undefined)
  0.35, .
- COC(=O)C1CC2CC(CC(C(=O)OC)C23SCCS3)C1=O (centres undefined)
  -1, -0.45
- N#Cc1nc(-c2ccccc2)oc1N1CCOCC1
  ., 0.9
- O=C(NCCCN1CCOCC1)c1ccc2nc(-c3ccccc3)c(-c3ccccc3)nc2c1
  9.8, .
- CC(C)(C)C(=O)CSc1nc(N)cc(N)n1
  ., 0.45
- O=C(NC1CCCCC1)C1CCN(C(=O)c2ccco2)CC1
  ., -0.05
- O=C1CCCN1C(=O)CSc1nc2cc(Cl)ccc2s1
  ., 1.5
- CCN(CC)c1cc(N)c([N+](=O)[O-])c2nonc12
  0.31, .
- COc1c(Br)cc(-c2noc(CSC)n2)cc1Br
  -0.6, -1.6
- COC(=O)c1ccc2nc(NC(=O)CSCC(=O)OCC(=O)c3ccc(Br)cc3)sc2c1
  -0.15, .

Full records, looked up by structure:
Profile of O=C(NC1CCCCC1)C1CCN(C(=O)c2ccco2)CC1 → CapD inh: .; AID504770: -0.05
Profile of O=C1CCCN1C(=O)CSc1nc2cc(Cl)ccc2s1 → CapD inh: .; AID504770: 1.5

Other records:
Each structure is followed by: CapD inh, AID504770
- COc1ccc(-c2cn3cc(C)ccc3n2)cc1F
  46, .
- Cc1ccc(N=Cc2cccs2)cc1Cl
  -0.14, .
- CCn1nnc2c(N3CCN(C=O)CC3)ncnc21
  ., -0.5
- CCOC(=O)c1c(C)n(C)c2ccc(OCC(O)CNC(C)(C)C)cc12 (centres undefined)
  0.49, -0.45
- CN(CC(=O)O)C(=S)c1ccccc1
  -0.91, -0.5
- CCOC(=O)C1=C(C)C2C3C(=O)N(c4ccccc4F)C(=O)C3C1(C)C1C(=O)N(c3ccccc3F)C(=O)C21 (centres undefined)
  -0.14, .
- Nc1ccc(SCc2nc(OCC(F)(F)F)cc(OCC(F)(F)F)n2)cc1
  -0.75, .
- Cc1ccc(S(=O)(=O)N(C)c2nc3ccccc3nc2Sc2nnnn2C)cc1
  ., -0.1
- O=C(NCc1ccccc1)C(c1ccccn1)N(C(=O)c1csnn1)C1CC1 (centres undefined)
  ., -0.2
- Cc1nn(Cc2ccccc2)c(C)c1C(=O)OCC(=O)Nc1ccc(S(N)(=O)=O)cc1
  ., 0.75
- Oc1ccccc1CNc1ccc(Br)cc1
  -1.9, 0.85
- Fc1ccccc1OC1OCCOC1Oc1ccccc1F (centres undefined)
  0.09, -0.4
- COc1ccccc1N1CCN(C(=O)C(C)c2ccc(CC(C)C)cc2)CC1 (centres undefined)
  -0.01, -0.8
- OC(CNCc1ccco1)CON=C1c2ccccc2-c2ccccc21 (centres undefined)
  ., 0.35
- Cc1ccc(CCNC(=O)CCCn2c(=O)c3ccccc3n(CC(N)=O)c2=O)cc1
  -0.23, -0.05
- Cc1csc(SCc2ccc(C(=O)O)cc2)n1
  ., 1.6
- CCN1C(=O)c2ccc(-c3ccc(C=C4C(=O)NC(=O)NC4=O)o3)cc2C1=O
  0.13, -0.7
- O=C(O)CNS(=O)(=O)/C=C/c1ccccc1
  0.12, -0.45
- Cc1cccc(C)c1NC(=S)NNC(=O)c1ccncc1
  -0.58, .
- CCc1ccc(OCCCn2cc(/C=C3/C(=N)N4C=CSC4=NC3=O)c3ccccc32)cc1
  2.3, -0.55
- Fc1ccc(C2NCCc3[nH]cnc32)cc1 (centres undefined)
  0.27, -0.95
- O=C(O)C1CCC(CNS(=O)(=O)c2ccccc2)CC1 (centres undefined)
  ., 1.7
- Cc1ccc(NC2=NCCOC2)cc1
  -0.34, -0.55
- CC1=C(C#N)C(=O)N(C)C(=O)/C1=C/c1ccc(-c2ccccc2C(=O)O)o1
  10, -0.1
- N#CCC(=O)N1CCN(c2ccccc2)CC1
  ., -0.2
- O=C(Nc1ccc(S(=O)(=O)N2CCCCCC2)cc1)c1nc2ncccn2n1
  0.045, 0.15
- COc1cccc(C(=O)N2CCc3c(F)c(F)c(F)c(F)c32)c1OC
  -0.19, .
- O=c1ccnc(SCc2ccc(Br)cc2)[nH]1
  -0.83, -0.4
- CC1CC(N2CNc3c(c(=O)n(C)c(=O)n3C)C2)CC(C)(C)C1 (centres undefined)
  0.005, .
- N#Cc1ccc(-c2ccccc2)n(Cc2cccc(C(F)(F)F)c2)c1=O
  1, .

Exported field by field: entries from further up.
O=C(Nc1ccc(S(=O)(=O)N2CCCCCC2)cc1)c1nc2ncccn2n1
  CapD inh = 0.045	AID504770 = 0.15
COc1cccc(C(=O)N2CCc3c(F)c(F)c(F)c(F)c32)c1OC
  CapD inh = -0.19	AID504770 = .
O=c1ccnc(SCc2ccc(Br)cc2)[nH]1
  CapD inh = -0.83	AID504770 = -0.4
CC1CC(N2CNc3c(c(=O)n(C)c(=O)n3C)C2)CC(C)(C)C1 (centres undefined)
  CapD inh = 0.005	AID504770 = .

(cont.)
compound	CapD inh	AID504770
O=S(=O)(c1cc(Cl)c(Cl)s1)N1CCN(CCOCCO)CC1	-0.27	.
O=C1CCCc2oc3c(Br)cc(NS(=O)(=O)c4ccc5ccccc5c4)cc3c21	-0.24	.
Cc1onc(-c2ccccc2)c1C(=O)N1CCC(C)CC1	0.3	0.2
O=C1CC(C(=O)N2CCN(C(=O)C3CC3)CC2)CN1Cc1ccco1 (centres undefined)	.	0.15
NC(=S)CN1CCCC1=O	0.11	-0.8
O=C(Cc1ccc(Cl)cc1)NCCN1CCOCC1	.	-0.1
O=C(Nc1nc(-c2ccc3c(c2)OCO3)cs1)c1cc2ccccc2oc1=O	-0.05	-0.2
Cc1cc(OCc2nc(-c3ccc(NC(=O)c4cccs4)cc3)no2)ccc1Cl	1.1	.
O=C(Nc1ccccc1)C(CC(=O)N1CCOCC1)C(=O)c1ccccc1 (centres undefined)	.	-0.7
C=CCNc1oc(COc2cccc(Cl)c2)nc1C#N	0.23	0.1
CCN(C(=O)CSc1nc(N)cc(=O)[nH]1)C1=CCCC1	.	0.15
CC1CCCCN1C(=O)COC(=O)/C=C/c1ccc2ccccc2n1 (centres undefined)	.	1.7
Cc1oc(-c2ccc(Cl)cc2)nc1CN1CCCC(C(=O)N2CCN(C(=O)c3ccco3)CC2)C1 (centres undefined)	-0.55	0.25
Cc1ccc2cccc(OCC(=O)N3CC(C)CC(C)C3)c2n1 (centres undefined)	.	0.7
CC(C)c1ccc(-n2c(-c3ccccc3)c3c(c2-c2ccc(Cl)cc2)C(=O)c2ccccc2C3=O)cc1	-0.34	.
CCOC(=O)C1=c2s/c(=C/c3ccccc3Cl)c(=O)n2C(N)=C(C#N)C1c1ccccc1Cl (centres undefined)	-1.5	.
CC(=O)n1nc(-c2ccc(Cl)cc2)nc1NCc1ccc(F)cc1	49	-1.4
COc1ccc(Cc2n[nH]c(=O)o2)cc1OC	0.23	.
O=C(COC(=O)c1ccc2ccccc2n1)NC1CC1	4.5	-0.4
O=C(c1cccc(Cl)c1)N1c2ccccc2Sc2ccccc21	-0.3	.
Cc1nc(SCC(=O)NCc2ccc(Cl)cc2)c(C#N)c(C)c1Cl	12	0.25
Cc1cc(C(=O)Nc2ccc(CN3CCS(=O)(=O)CC3)cc2)no1	0.15	-0.25
CCOc1cc(C2C(C#N)=C(N)Oc3n[nH]c(-c4ccc(OC)cc4)c32)cc(Br)c1O (centres undefined)	-0.11	.
CCn1c(O)c(/C=C2\C=C(C)N=C2C)c(=O)[nH]c1=S	-3.5	-0.65
CC(C)CCNC(=O)c1csc2c1CCCC2	26	1.2
COc1ccc(CN2CCN(S(=O)(=O)c3cccc(C)c3)CC2)cc1F	-0.57	.
CC(C)(O)C#Cc1ccc(C(=O)NCc2ccccc2)s1	1	1.5
Cc1nc2cc(C(=O)NCC3CCCO3)ccc2n1-c1ccc(OCc2ccccc2)cc1 (centres undefined)	-0.11	.
Cn1c(=O)[nH]c(=O)c2c1nc(N1CCCC1)n2CCSc1ncccn1	.	-1
O=C(Nc1nnc(NC(=O)c2ccccc2O)s1)c1ccccc1O	1.7	-0.6
COc1ccc(C)cc1Cn1c(S(C)(=O)=O)nc2ccccc21	-0.3	-0.15
CC(=O)ON1C(C)(C)Cc2noc(N)c2C1(C)C	0.27	-0.45
Cc1nn(C)cc1NC(=O)Nc1ccc(F)cc1	-1.1	-0.65
Cc1ccccc1-c1c(-c2ccc(O)c(C)c2O)n[nH]c1C	0.19	-0.05
COc1cc(S(=O)(=O)NCc2cccnc2)ccc1Cl	0.15	0
Cc1ccc(CN(Cc2ccco2)C(=S)NCC(=O)N2CCC3(CC2)OCCO3)cc1	0.61	0.1
COCCn1c(=O)c(=O)n(C)c2cc(C(F)(F)F)ccc21	1.2	.
CN(C)C(=O)c1cc(F)c(F)c(F)c1F	0.34	0.35
O=C(/C=C/c1ccccc1)Nc1cc(C(=O)N2CCc3ccccc3C2)ccc1N1CC2CC(C1)c1cccc(=O)n1C2 (centres undefined)	-0.66	.
Clc1ccc(C2=NN(c3ccc(Cl)cc3)C(c3ccccc3)C2)cc1 (centres undefined)	39	.
O=C(COCC(=O)N1CCN(c2ccccc2)CC1)N1CCN(c2ccccc2)CC1	.	0.95
O=S(=O)(NC1CCN(Cc2ccccc2)CC1)c1ccc(-n2cccn2)cc1	0.48	-1.4
c1cn2cc(-c3ccc4c(c3)OCO4)nc2s1	-0.91	-0.95
CC(=O)Nc1ccc(OCc2ccccc2)cc1	-0.19	1
CCc1cc(-c2n[nH]c(C(=O)O)c2-c2nc(C)cs2)c(O)cc1O	0.88	0.1
O=C(O)COc1ccc2nsnc2c1	.	-0.5
CCOc1cccc(=NC2CCCCC2)c2c(C)n(C)c(C)c12	-0.36	-2.8
COc1ccc(CN2CCCC2C(=O)Nc2ccc(OC)c(OC)c2)cc1OC (centres undefined)	0.45	-0.1
CC1CN(C(=O)c2ccncc2)CC(C)O1 (centres undefined)	-0.39	1.1
COc1ccc2cc3cc(C(=O)NCCC4=CCCCC4)sc3nc2c1	0.04	0.3

(listing goes on)
compound	CapD inh	AID504770
CCOC(=O)c1c2ccc(OCc3ccc([N+](=O)[O-])cc3)cc2n2ccccc12	-0.01	.
O=C(CCCCCn1c(=S)[nH]c2ccccc2c1=O)N1CCC(O)(c2cccc(C(F)(F)F)c2)CC1	-0.33	.
N#Cc1ccc(C#CCOC(=O)c2ccccc2)cc1	-0.06	-0.35
O=C(CN(C(=O)c1csnn1)c1ccccc1)NCc1ccc2c(c1)OCO2	.	-0.2
CCOC(=O)c1ccc2nc(C(F)(F)F)nc(N3CCc4ccccc4C3)c2c1	-0.27	-0.55
COC(=O)c1csc2c(C(F)(F)F)cc(=O)[nH]c12	40	0.95
COc1cccc2c1OCC2=O	82	.
CCOC(=O)CCc1c(C)n(CC)c2cc(-c3ccccc3OC)nn2c1=O	17	-0.8
O=S(=O)(c1ccc(Cl)c(Cl)c1)N1CCSCC1	-0.35	-0.25
O=[N+]([O-])c1ccc(N2CCN(S(=O)(=O)c3ccc(F)cc3F)CC2)nc1	0.08	.
Cc1ccc(-n2c(C)c(Cc3ccccc3)[nH]c2=O)cc1	.	-0.55
Cc1cc(C)c(S(=O)(=O)Nc2ccc3oc4c(c3c2)CC(C(C)(C)C)CC4)c(C)c1 (centres undefined)	-0.42	.
O=C(CCSCc1ccc(Cl)cc1)Nc1ccc(F)cc1	0.01	1.5
Cc1ccccc1CN1CCC(O)CC1	0.085	0.25
O=C(CS(=O)c1cccc(Cl)c1)Nc1cccc(C(F)(F)F)c1 (centres undefined)	-0.11	.
Cc1nc(Nc2ccccc2)nc2c1ncn2-c1ccccc1	1.9	0.3
CC1C(C#N)=C(SCC(=O)Nc2ccc(Br)cc2)NC2=C1C(=O)CC(C)(C)C2 (centres undefined)	1	.
O=C1c2ccccc2CCC1(CO)CO	-0.015	-1.1
COc1ccc(N2CN=c3s/c(=C\C=C\c4ccccc4)c(=O)n3C2)cc1OC	0.3	-0.35
C#CCn1c(=NC(=O)C2COc3ccccc3O2)sc2cc(Br)ccc21 (centres undefined)	.	0.2
CCOc1cc(C2Nc3ccccc3NC3=C2C(=O)CC(c2ccc(OC)cc2)C3)ccc1OC(C)=O (centres undefined)	-1.1	.
O=S(=O)(c1ccccc1)N1CCn2cccc2C1c1ccccc1 (centres undefined)	.	0.05
CCOc1cc2c(cc1OCC)C(CC(=O)O)N(C(=O)Nc1ccc(OC)cc1)CC2 (centres undefined)	-0.095	-1
